Bioassay records as filed in PubChem BioAssay.
BJeLR lethal: BJeLR cell viability loss | BJeLR (HRASV12) viability, CellTiter-Glo ATP luminescence, 48 h; reference of the scale not given here | 0.17% of 300,000 active | inhibition, % (concentration not given with the values) | AID 1554;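 active = replicate mean above 50%; inconclusive = above 50% but judged a plate artefact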;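 note: 50 nL library stock added to about 25 µL; numbers are from one replicate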
Sa RN4220 lethal: S. aureus RN4220 growth inhibition; OD600, 16 h; inhibition, % (no concentration beside the values); 0.33% of 330,000 active;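 active = z-score of -3 or lower and OD600 up to 0.18 on both plates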;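 note: plate controls were untreated cells for no effect and reference antibiotic for full effect; stock transfer was 100 nL into about 80 µL; one replicate is shown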
PrP UTR inh: inhibition of PrP 5' UTR reporter expression; AID 488862; cell-based PrP 5' UTR mRNA reporter, plate reader; inhibition, % (concentration not given with the values); 0.35% of 340,000 active;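 active = every replicate at 50% or more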;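 note: 0 = median of the neutral control wells; tested in H4 reporter cells; numbers are from one replicate; inactives centre near -14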
Bead autofluor: compound fluorescence in toxin protease inhibitor counterscreen. compound autofluorescence counterscreen, microsphere flow cytometry; active compounds read high. fluorescence intensity (no concentration beside the values). 3.1% of 360,000 active;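 active = at least 3 SD above the mean of all compounds, about 16000 in these data; inconclusive = too few beads counted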;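 note: 100 nL of 1 mM stock went into each well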
ugtP null kill: kills S. aureus RN4220 lacking UgtP; S. aureus RN4220 ugtP deletion, OD600 growth, 16 h; some inactives read as strong as hits; growth inhibition, % (concentration not given with the values); 0.54% of 330,000 active;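 active = z-score under -3 and OD600 up to 0.15 on both plates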;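 note: plate controls were untreated wells for no effect and antibiotic for full effect; wells of about 80 µL received 100 nL stock; the first replicate is given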
Mtb hypoxia inh: Mtb hypoxia fluorescent reporter inhibition; 0.1% of 300,000 active; fluorescence inhibition, % (concentration not given with the values); M. tuberculosis hypoxia-regulated fluorescent reporter, fluorescence; AID 1159583;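 active = 35 to 45% if threefold the growth effect, above 45% if 1.5-fold the growth effect; inactive = the rest, general growth blockers included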;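 note: wells of about 50 µL received 100 nL stock; 0% = vehicle wells and 100% = reference inhibitor wells; whole bacteria with a GFP reporter of the hypoxia response; strong numbers were not always called active; many hits fall short of the cut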
Mtb hypoxia inh growth: recorded beside Mtb hypoxia inh, whose call it bears; growth inhibition, %; measured here: M. tuberculosis growth (absorbance);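 0% = vehicle and 100% = reference antibiotic; read after six days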
Starred values were filed as active, the others as inactive; ? = inconclusive; / = not tested or not shown; & = joins results of further samples.

Molecule	BJeLR lethal	Sa RN4220 lethal	PrP UTR inh	Mtb hypoxia inh growth	ugtP null kill	Bead autofluor	Mtb hypoxia inh
Cc1noc(NS(=O)(=O)c2ccc(N3Cc4ccccc4C3=O)cc2)c1C	-13.8	1.0	-4.3	15.9	-1.2	5847	2.6
Cc1ccc(N(Cc2ccccc2F)S(C)(=O)=O)cc1C	10.4	1.1	/	4.3	-0.8	11340	14.5
CSc1ncccc1C(=O)OCC(=O)NC1CC1	/	2.3	-15.3	2.0	4.5	?	4.3
CCOC(=O)NN=Cc1c(C)nn(-c2ccccc2Cl)c1Cl	/	1.4	/	3.9	2.4	/	0.0
N/C(=N\OC(=O)/C=C/c1ccccc1Cl)c1ccccn1	4.0	/	-41.3	/	/	2564	/
CCc1ccc(/C=C2/C(=O)N(c3ccccc3)C(=S)N2CC(=O)OC)s1	4.2	-1.2	-13.5	7.5	12.9	2582	8.0
COc1ccc2oc(=O)c(C(=O)OCC(=O)c3ccc([N+](=O)[O-])cc3)cc2c1	3.4	6.0	/	4.4	0.5	/	1.7
CCOC(=O)c1c(C)[nH]c(C(=O)COC(=O)CCNS(=O)(=O)c2ccc(NC(C)=O)cc2)c1C	/	12.3	-12.3	3.4	5.5	3633	6.5
COC(=O)Cc1csc(N)n1	3.7&-5.0	4.1&0.5	-21.0&-21.4	-4.4	13.8&1.3	2452&3314	8.7
COc1ccccc1N=Cc1nc(-c2ccccc2)oc1OC(C)=O	-5.1	5.5	-2.7	6.8	0.8	9248	5.1
O=C1C(Nc2ccccc2)=CC(c2ccc(O)cc2)N1c1ccccc1 (stereo not given)	-10.1	-10.2	4.4	9.9	27.0	4230	-2.9
O=C(c1ccc([N+](=O)[O-])cc1)n1nc(-c2ccccc2)nc1NCc1ccccc1	7.0	-13.2	-19.6	0.0	-1.3	?	-0.3
CC(O)CNc1nc2sc3c(c2c(=O)n1CCc1ccccc1)CCCCC3 (stereo not given)	0.2	-2.4	-20.6	12.3	-31.6	2764	2.2
O=[N+]([O-])c1ccc(S(=O)(=O)c2cccc(C(F)(F)F)c2)nc1	45.1	18.4	-25.9	-6.4	55.9	/	-17.9
CC(CCc1ccccc1)NC(=O)C1CCN(S(=O)(=O)c2cnc[nH]2)CC1 (stereo not given)	3.2	0.8	-18.0	/	5.0	4293	/
COc1cc(-c2cc(C(=O)Nc3ccc(S(=O)(=O)Nc4ncccn4)cc3)c3ccccc3n2)cc(OC)c1OC	-10.2	2.3	-18.5	/	6.7	4663	/
CCCCNC(=O)COC(=O)c1c2c(nc3ccccc13)CCC2	-7.7	0.7	-13.2	1.0	0.0	5001	4.9
COc1cccc(C(=O)Nc2ccc3nc(N4CCN(c5ncccn5)CC4)cc(C)c3c2)c1OC	/	7.8	/	19.3	0.7	/	0.2
COC(=O)c1ccccc1S(=O)(=O)N1CCC(NC(=O)c2ccccc2)CC1	5.9	0.4	-23.3	3.2	-0.6	3008	5.8
Cc1ccc(CN2CCN(Cc3cnn(-c4ccc(F)cc4)c3)CC2CCO)o1 (stereo not given)	-1.6	1.0	-7.6	7.3	5.8	2807	15.2
COC(=O)c1[nH]c2c(c1C)C(=O)CCC2	2.5	6.2	-6.8	0.3	3.4	10933	2.3
O=C(NCc1ccccc1)c1ccc(NC(=O)c2ccccc2F)cc1	-5.2	0.2	1.6	3.4	5.5	5763	4.4
CC1CCN(Cc2csc(N)n2)CC1	12.2	7.7	-6.4	-0.2	1.8	2431	0.2
COc1cccc(N2CCN(S(=O)(=O)c3ccc4c(c3)NC(=O)C(C)C(=O)N4)CC2)c1 (stereo not given)	9.0	2.0	-11.6	-1.8	1.3	5953	-4.3
CCOC(=O)c1c(-c2cccc([N+](=O)[O-])c2)cn2ccccc12	4.9	9.4	-9.2	5.0	-0.1	4292	6.5
C/C(=N/NC(N)=S)c1ccccc1[N+](=O)[O-]	3.8	/	5.4	/	/	5125	/
COc1ccc(COC(=O)NN=Cc2cccs2)cc1	/	0.6	/	7.5	9.9	/	19.4
CN(C(=O)CSc1nnc(N)s1)c1c(N)n(Cc2ccccc2)c(=O)[nH]c1=O	-7.3	1.6	-11.5	/	-2.0	2711	/
CN(C(=O)CS(=O)(=O)c1cn(CC(=O)N2CCOCC2)c2ccccc12)c1ccccc1	-7.4	3.1	-16.1	0.7	-1.7	4688	-2.7
Cc1ccccc1Oc1ccc(Oc2ccccc2C)nn1	-3.2	4.1	-57.5	7.6	11.2	13330	7.6
CC(C)COC(=O)/C(C#N)=C/c1c[nH]c2ccccc12	-13.7	/	-38.8	/	/	1992	/
COc1ccc(CN2CCC(CO)(Cc3ccccc3C(F)(F)F)CC2)c(F)c1	-7.6	-0.1	-23.9	-7.9	3.6	4407	1.6
c1ccc2[nH]c(NCCN3CCOCC3)nc2c1	-1.5	0.8	-43.8	/	-6.1	2788	/
CCOc1ccc(NC(=O)CCNC(=O)N2C[C@H]3C[C@@H](C2)c2cccc(=O)n2C3)cc1	-3.7	-0.5	-7.6	/	-6.2	6193	/
COc1cc(C(=O)NNC(=O)CCOc2cccc(Br)c2)cc(OC)c1OC	/	-2.2	-6.8	-1.7	-9.9	5883	-11.4
Cc1ccc(C=NNC(=O)c2cc3c(ccc4ccccc43)o2)cc1[N+](=O)[O-]	/	-6.4	/	16.0	-8.2	/	4.3
O=c1c2ccccc2c2c(O)nc(-c3ccccc3)n2n1Cc1ccccc1	1.6	-3.6	-13.7	/	-1.5	2224	/
O=C(COc1ccc2ccccc2c1Br)N1CCCC1	10.5	3.6	-45.1	/	-0.3	6079	/
Cc1ccccc1C(=O)N1CCN(c2ccc(NC(=S)NC(=O)c3cccs3)cc2)CC1	5.2	7.2	-12.4	25.4	56.2	3653	8.8
CS(=O)(=O)N(CC(=O)O)c1ccc2c(c1)OCO2	3.0	0.7	-18.1	/	0.6	4938	/
O=C(NCC(c1cccs1)N1CCOCC1)c1cc(Cl)ccc1[N+](=O)[O-] (stereo not given)	8.3	-1.8	6.6	5.9	-1.4	5665	-9.1
COc1ccc(C(=O)Nc2cccnc2)cc1S(=O)(=O)N1CCOCC1	-8.8	2.2	-11.5	17.6	-0.7	8247	10.5
COC(=O)C1=C(C)NC(=O)CC1c1cc2c(cc1Br)OCO2 (stereo not given)	0.4	-8.5	-9.3	6.1	-5.6	3050	6.2
COc1ccccc1C(=O)NCCC(=O)N1CCCCCCC1	-4.9	3.8	5.8	-2.0	2.1	4754	-1.6
COc1ccc(Cl)cc1NC(=O)COC(=O)c1ccc(Br)o1	/	5.4	-9.3	7.5	2.7	4136	17.3
Cc1ccc(/C=N/n2c(-c3cccs3)n[nH]c2=S)cc1	-3.2	/	4.4	/	/	2710	/
Cc1nn(-c2ccccc2)c(N2CCCC2)c1/C=N/NC(=S)Nc1ccccc1F	3.6	/	-7.6	/	/	2017	/
COc1ccc([C@H]2[C@H](C(=O)OC(C)(C)C)N3N=Cc4ccccc4C3C23C(=O)c2ccccc2C3=O)c(OC)c1 (stereo not given in full)	2.0	/	15.2	/	/	2597	/
CCCS(=O)(=O)N1CCC(C(=O)NCCN(CC)c2ccccc2)CC1	3.5	2.0	-12.1	6.7	-8.5	2758	3.6
O=C(c1ccccc1F)c1cc2c(cc1[N+](=O)[O-])OCCO2	0.5	3.4	-6.6	2.2	7.1	2762	-5.9
N#CCNC(=O)c1cccn1-c1ncc(C(F)(F)F)cc1Cl	3.8	2.0	-17.5	-1.5	6.4	4270	7.6
COc1ccc(NC(=O)N[C@@H](CCSC)C(=O)O)cc1OC	7.8	3.9	-4.0	2.6	-2.0	4203	15.3
FC(F)(F)COc1ccc(-c2nnc(SCc3ccccc3)o2)cn1	-10.1	1.6	-19.3	10.0	0.0	4612	16.1
O=C(NC1CCCc2ccccc21)c1ccc2c(c1)OCO2 (stereo not given)	-5.0	-0.4	-8.4	/	3.5	4574	/
CCc1noc(C)c1C(=O)N(C)CC(=O)Nc1ccc(F)c(F)c1F	1.0	0.7	-23.2	5.9	-1.2	5529	-2.0
Cc1noc(C)c1CN(C(=S)NC(C)C)c1ccccc1	12.5	-5.5	-20.9	2.0	2.1	2129	-2.5
CCCN(CCC)CCCNC(=O)c1cc2cc3ccc(OC)cc3nc2o1	2.0	-4.7	-14.7	/	-5.9	2868	/
Cc1cccc(C(=O)NNC(=O)c2ccco2)c1	8.0	4.6	-22.5	-1.9	8.6	2248	1.1
CN(c1ccccc1)S(=O)(=O)c1nnc(NC(=O)COc2ccccc2)s1	6.9	5.9	-7.4	5.2	0.8	5676	-10.9
CN(C)CCCNc1oc(-c2cccc(Cl)c2)nc1C#N	17.7	-14.4	-23.9	0.5	-0.9	2768	4.8

Exported with two lines to a compound: part of the list above
Order of values: BJeLR lethal	Sa RN4220 lethal	PrP UTR inh	Mtb hypoxia inh growth	ugtP null kill	Bead autofluor	Mtb hypoxia inh
CCCN(CCC)CCCNC(=O)c1cc2cc3ccc(OC)cc3nc2o1
  2.0	-4.7	-14.7	/	-5.9	2868	/
C/C(=N/NC(N)=S)c1ccccc1[N+](=O)[O-]
  3.8	/	5.4	/	/	5125	/
COc1ccc([C@H]2[C@H](C(=O)OC(C)(C)C)N3N=Cc4ccccc4C3C23C(=O)c2ccccc2C3=O)c(OC)c1 (stereo not given in full)
  2.0	/	15.2	/	/	2597	/
COc1cccc(N2CCN(S(=O)(=O)c3ccc4c(c3)NC(=O)C(C)C(=O)N4)CC2)c1 (stereo not given)
  9.0	2.0	-11.6	-1.8	1.3	5953	-4.3

Other structures follow:
Molecule	BJeLR lethal	Sa RN4220 lethal	PrP UTR inh	Mtb hypoxia inh growth	ugtP null kill	Bead autofluor	Mtb hypoxia inh
CCOC(=O)C1CCN(C(=O)Nc2ccc(OC(F)(F)F)cc2)CC1	5.4	0.3	-41.3	-4.5	4.9	4424	6.3
CCNC(=O)CSc1nc(-c2ccccc2)cs1	-7.2	1.1	-31.6	1.1	6.3	3874	-0.1
COC(=O)c1sccc1NC(=O)CC1C(=O)NCCN1C(=O)Nc1ccc(OCc2ccccc2)cc1 (stereo not given)	-2.8	5.7	-40.0	-3.6	-6.2	5631	0.8
CCc1ccc(C(=O)NC(=S)NCc2cccnc2)cc1	-4.0	-0.4	6.6	8.8	-6.3	6383	-8.6
Oc1c(C(c2cccs2)N2CCN(c3ccccc3)CC2)sc2ncnn12 (stereo not given)	9.4	5.1	-20.2	4.9	-2.6	5198	-0.6
O=S(=O)(c1ccccc1)c1cnn(-c2ccccc2)c1-c1ccc(Cl)cc1	-7.8	10.9	-23.1	5.1	23.1	22953*	3.7
COc1ccc2c(c1)c(=O)c(Br)c(C)n2Cc1ccccc1	8.9	4.8	-20.0	/	-5.0	2905	/
O=C(NCc1ccccc1)c1ccc(CS(=O)Cc2ccc(Cl)cc2)o1 (stereo not given)	-7.8	0.2	-1.9	-6.0	-3.5	4323	0.2
COc1ccc(OCC(=O)Nc2ccccc2O)cc1	13.3	7.0	-54.5	/	-1.7	5650	/
O=C(COC(=O)c1cccc(S(=O)(=O)N2CCN(c3ccccc3)CC2)c1)NCC1CCCO1 (stereo not given)	0.8	-0.6	-10.3	1.1	7.5	4264	5.5
COc1ccc(S(=O)(=O)N2CCOCC2)cc1NC(=O)CN1CCCC1	11.9	8.4	-10.3	15.4	5.1	4245	15.2
CCCC(=O)Nc1ccc(C(=O)Nc2cc(C(F)(F)F)ccc2Cl)cc1	8.5	-3.7	-25.8	9.2	-0.4	3047	2.9
Cc1ccc(C2CC(c3ccccc3C)n3nc(N)nc3N2)cc1 (stereo not given)	-0.4	1.2	-11.8	/	2.1	6185	/
Cc1ccc(C(=O)O)cc1NC(=S)NC(=O)c1ccc([N+](=O)[O-])cc1Cl	-2.2	6.2	-50.7	-4.2	-9.3	2045	-1.8
O=C(Nc1ccccc1)C(=O)Nc1ccc2c(c1)N(C(=O)C1CC1)CCC2	25.9	-2.4	-56.0	0.5	13.5	4460	7.9
CC1=C(C(=O)Nc2cccnc2)C(c2cccnc2)n2nc(-c3cccs3)nc2N1 (stereo not given)	-3.2	-0.2	-5.7	8.1	12.6	2411	6.7
COc1ccc(-n2cc(CNCCc3nc(C)cc(C)n3)c(-c3ccccc3Cl)n2)cc1	0.0	-1.6	-59.0	-0.5	1.5	4783	3.3
